# Screening data as filed in PubChem BioAssay.
# S aureus helic = blocks Staphylococcus aureus DNA helicase | purified S. aureus helicase, fluorescence unwinding assay; about half of the hits fall short of the stated cut | inhibition, %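 (tested at about 80 µM)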 | actives 0.05% (n = 120,000) | AID 485395;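 active = both duplicates at 50% or more, or one of them with a favoured structure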;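 also: 0% = mean of negative control wells and 100% = mean of positive control wells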
# MgrA DNA FP = S. aureus MgrA-DNA binding modulation; fluorescence polarization; inhibition, %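 (about 10 µg/mL by stock and volumes)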; actives 0.13% (n = 84,000);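 active = above 50% in either of two replicates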;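 also: 0% = protein plus DNA without compound and 100% = DNA alone without protein; higher means less MgrA bound to DNA so lower polarization; one replicate is shown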
# * hit, by the source's call; x = no result given.
MgrA DNA FP | S aureus helic | mol
0.7 | x | CCOC(=O)C1=C(CCl)OC(N)=C(C#N)C1c1cccc(OCc2ccccc2)c1 (stereo not drawn)
3.7 | x | Cc1ccc(C(=O)C2CCN(S(=O)(=O)c3c(C)noc3C)CC2)cc1
0.0 | -7 | O=C(Nc1ccccc1SC(F)(F)F)c1cccnc1
x | -12 | CNCc1nc2ccccc2c(=O)[nH]1
-0.3 | 6 | CC1=C(c2ccc(C)cc2)S(=O)(=O)N=C1Nc1ccc(C)cc1
2.0 | 5 | COC(=O)c1ccc(Cn2cc(Cl)cn2)cc1
-1.1 | x | COC(=O)c1sc(S(=O)(=O)Nc2ccc(OC)cc2)cc1Cl
0.9 | 13 | COc1cc(C)nc(N2CCCC(C(=O)Nc3ccccc3Br)C2)n1 (stereo not drawn)
1.0 | x | CC(=O)c1csc([N+](=O)[O-])c1
-6.3 | -5 | COc1cccc(CNC(=O)C2CCN(c3ncccn3)CC2)c1
x | 7 | CCn1c(C(=O)N2CCCC(C(=O)NCCc3ccc(S(N)(=O)=O)cc3)C2)cc2sccc21 (stereo not drawn)
x | 7 | N=c1ncn(Cc2ccccc2)c2nc(SCC(=O)O)[nH]c12
-1.3 | x | CC1=CCC2C(=O)N(c3ccc(I)cc3)C(=O)C2C1 (stereo not drawn)
x | 14 | CCOC(=O)C1=C(C)NC(=O)CC1c1cc2c(cc1Br)OCO2 (stereo not drawn)
0.9 | x | CC(N)C(O)c1cccc(O)c1 (stereo not drawn)

# Following part.
MgrA DNA FP | S aureus helic | mol
x | 9 | CCCc1cc(=O)oc2cc(OC(=O)c3cccnc3N3CCCC3)ccc12
5.3 | 3 | OCc1ccc(OCCOc2cccc3cccnc23)cc1
-1.3 | -16 | Oc1ccccc1C(O)C(F)(F)F (stereo not drawn)
x | -4 | CC(OC(=O)C1Cc2ccccc2CN1S(C)(=O)=O)C(=O)Nc1ncc(Cl)cc1Cl (stereo not drawn)
2.0 | 7 | CCS(=O)CCSc1nc(-c2ccc(C)cc2)cc(-c2ccccc2)c1C#N (stereo not drawn)
x | 18 | CCSc1nc2c(c(=O)n1-c1ccc(C)cc1)SCC2
-1.5 | x | O=C1CSC(c2cccnc2)N1Cc1ccc(Cl)cc1Cl (stereo not drawn)
-3.0 | x | Cc1cc(S(=O)(=O)NC2CCCCNC2=O)c(C(F)(F)F)o1 (stereo not drawn)
0.0 | 8 | Oc1ccc(-c2nnc(-c3ccc(O)cc3)nn2)cc1
-1.1 | x | CCOC(=O)c1sc2ncccc2c1NC(=O)C(F)(F)F
x | 9 | COc1ccc(N(C)C(=O)CN2C(=O)C3C4C=CC(C4)C3C2=O)cc1 (stereo not drawn)
x | -3 | O=C1CC(=O)CC2(CCCC2)C1
-0.4 | 8 | c1ccc(OCCCn2c3ccccc3c3nc4ccccc4nc32)cc1
-0.2 | 14 | Cc1nc2ccccc2n1Cc1cccc(Cl)c1
x | -4 | CCOC(=O)c1cc(CC)sc1NC(=O)c1ccco1

# Five neighbouring entries already listed, quoted:
MgrA DNA FP | S aureus helic | mol
0.7 | x | CCOC(=O)C1=C(CCl)OC(N)=C(C#N)C1c1cccc(OCc2ccccc2)c1 (stereo not drawn)
3.7 | x | Cc1ccc(C(=O)C2CCN(S(=O)(=O)c3c(C)noc3C)CC2)cc1
0.0 | -7 | O=C(Nc1ccccc1SC(F)(F)F)c1cccnc1
x | -12 | CNCc1nc2ccccc2c(=O)[nH]1
-0.3 | 6 | CC1=C(c2ccc(C)cc2)S(=O)(=O)N=C1Nc1ccc(C)cc1

# Later entries:
MgrA DNA FP | S aureus helic | mol
-0.6 | x | CCOC(=O)c1c(C)n(-c2ccccc2)c2c1cc(OC(=O)c1ccc(OCC)cc1)c1ccccc12
x | 7 | CCN1CCCC1CNC(=O)C1=CCN(S(=O)(=O)c2ccccc2)CC1 (stereo not drawn)
-1.0 | -10 | CC(C)n1c(Cc2ccccc2)nc2ccccc21
x | -6 | COc1ccc(CCNC(=O)CCNc2ccccc2C)cc1OC
-0.3 | 7 | O=C(c1cc2nc(-c3ccccc3)cc(C(F)(F)F)n2n1)N1CCCC1
0.2 | x | O=c1cc(-c2ccccc2)oc2ccc(Cl)cc12
0.8 | x | COC(=O)C1=C(C)OC(N)=C(C#N)C1c1ccc(F)cc1 (stereo not drawn)
x | -3 | O=C(O)/C(=C\c1ccccc1)c1ccccc1
1.4 | x | O=C(Cn1cnc([N+](=O)[O-])n1)Nc1ccc(F)c(Cl)c1
17 | x | O=C(O)C1c2ccccc2C(=O)N(Cc2ccc(F)cc2)C1c1cccs1 (stereo not drawn)
x | 3 | CC(NC(=O)C12CC3CC(CC(C3)C1)C2)C(=O)NN (stereo not drawn)
x | -9 | CN(CC(=O)NC1CCCc2ccccc21)C1CCCCC1 (stereo not drawn)
-7.7 | x | CCSc1ncccc1C(=O)Oc1cc(C)nn1-c1ccccc1
-5.9 | -3 | Cc1cc(C)c(C(=O)Cn2c(=S)[nH]c3ccccc32)c(C)c1
-0.2 | 12 | CCc1c(C(=O)Nc2ncn(Cc3cccc(C)c3)n2)csc1C

# Three entries already listed, arranged by molar mass, lowest first.
MgrA DNA FP | S aureus helic | mol
x | -3 | O=C(O)/C(=C\c1ccccc1)c1ccccc1
x | -6 | COc1ccc(CCNC(=O)CCNc2ccccc2C)cc1OC
17 | x | O=C(O)C1c2ccccc2C(=O)N(Cc2ccc(F)cc2)C1c1cccs1 (stereo not drawn)

# (continued)
MgrA DNA FP | S aureus helic | mol
-1.8 | 3 | Cn1ccnc1SCC(=O)N1c2ccccc2-c2c(ssc2=S)C1(C)C
-2.7 | -3 | COC(=O)CCC(=O)Nc1ccc(-c2nc3ccccc3[nH]2)cc1
x | 8 | O=C(NCCC(=O)N(c1ccccc1)c1nc2ccccc2s1)c1ccco1
-0.7 | x | FC(F)(F)c1ccc2nsnc2c1
3.8 | x | O=S(=O)(c1ccc(-c2ccccn2)s1)N1CCCCC1
x | 10 | COC(=O)c1ccc(COc2ccc(C3NC(C(=O)O)CS3)cc2OC)o1 (stereo not drawn)
x | -1 | O=C(NCc1cccs1)c1cc(-c2ccco2)on1
x | 15 | NC(=O)COc1ccc2c(-c3ccccc3)cc(=O)oc2c1
0.8 | x | Cc1ccc(Oc2ncccc2NC(=O)c2ccc3c(c2)OCCCO3)c2c1CCC2
x | -7 | CC(=O)N(C(C)=O)c1c(N2CCCC2)c2ccccc2oc1=O
-0.6 | x | COC(=O)CCC(=O)c1ccn(S(=O)(=O)c2ccccc2)c1
x | -16 | O=c1[nH]c2c(c(=O)[nH]1)CN(Cc1ccc(F)cc1)CC2
4.2 | 14 | Cc1ccc(OCC(=O)n2cnnc2N)c(C)c1
-3.0 | 3 | Cc1ccc(-c2nn3c(CC#N)nnc3c3ccccc23)cc1
-1.1 | 1 | CCOC(=O)C1=C(N)SC(c2ccccc2)=C(C#N)C1c1ccco1 (stereo not drawn)

# Additional records
MgrA DNA FP | S aureus helic | mol
-0.4 | 13 | O=C1C(C=NC(CO)(CO)CO)=C(O)c2ccccc21
3.0 | 5 | CC(=O)NC(N1CCCCC1c1cccnc1)(C(F)(F)F)C(F)(F)F (stereo not drawn)
x | -7 | O=C(COc1ccc(Cl)cc1)Nc1noc2ccccc12
x | 5 | CC1Sc2ccc(C(=O)NCc3ccccn3)cc2NC1=O (stereo not drawn)
3.2 | -3 | CCCC(C)C(=O)Nc1ccc(Cl)cn1 (stereo not drawn)
-1.4 | -11 | Cc1cccc(OCC(=O)NCc2ccccc2)c1
-1.0 | x | Cn1nccc1NC(=O)Nc1cccc(Br)c1
x | 7 | O=C1CCCN2N=C(SCC(=O)OCc3ccccc3)SC2=N1
x | 26 | FC(F)Oc1ccc(N=C2SCC3CCCCN23)cc1 (stereo not drawn)
-0.2 | 2 | O=C(Nc1ccccc1Cl)N1CCc2ccccc2C1
x | 5 | O=c1c2cnn(-c3ccccc3)c2ncn1Cc1ccccc1
-0.8 | 15 | Cc1ccc(Oc2ccc(C)c(C)c2)cc1C
-0.2 | x | COc1cc2nc(NC(=O)c3ccccc3)sc(=O)c2cc1OC
9.2 | -3 | O=C(O)C1C2C=CC(C2)C1C(=O)NCCc1ccncc1 (stereo not drawn)
-2.5 | 0 | Cc1ccc(-c2nnc(N3CCOCC3)c3ccccc23)cc1S(=O)(=O)NCC1CCCO1 (stereo not drawn)

# (continued)
MgrA DNA FP | S aureus helic | mol
2.9 | 0 | O=c1[nH]c(-c2ccccc2O)nc2sc3c(c12)CCCC3
-1.2 | -3 | O=c1[nH]c(CCl)nc2sc3c(c12)CCC3
9.8 | 1 | O=C1/C(=C/c2ccco2)CN(Cc2ccccc2)C/C1=C\c1ccco1
x | 14 | O=C1Nc2ccccc2SC(c2ccccc2)C1O (stereo not drawn)
x | 20 | CC1CC(C)CN(S(=O)(=O)c2ccc(C(=O)NN3CCOCC3)cc2)C1 (stereo not drawn)
1.9 | -12 | CCOC(=O)c1cc2ccccc2oc1=N
x | 10 | c1cncc(CSc2nnc3ccc(-c4ccncc4)nn23)c1
x | -10 | CCCNC(=O)Cn1c(=O)cnc2ccccc21
0.2 | 5 | O=C(C1c2ccccc2Oc2ccccc21)N1CCN=C1SCc1ccccc1F
x | -14 | CCn1nc(C(=O)NCCC(C)C)c2ccccc2c1=O
x | 14 | Cc1nnc(Nc2ccc3c(c2)OCCO3)[nH]c1=O
x | -14 | Cc1ccc(N2C(=S)N(C)C3CS(=O)(=O)CC32)cc1 (stereo not drawn)
x | -7 | COc1ccccc1CNC(=O)CSc1nc2c(cnn2-c2cccc(C)c2)c(=O)[nH]1
x | -4 | C=CCN(C(=O)/C=C/c1ccco1)c1nc(-c2ccccc2)cs1
-2.4 | 6 | COc1cc(OC)cc(C2NCCc3c2[nH]c2ccccc32)c1 (stereo not drawn)

# Carrying on.
MgrA DNA FP | S aureus helic | mol
-0.8 | x | O=C(Nc1ccccc1)c1ccccc1OCC(O)CN1C(=O)c2ccccc2S1(=O)=O (stereo not drawn)
-6.5 | 5 | COc1cccc(OC(C)C(=O)O)c1 (stereo not drawn)
x | -7 | CCCc1nc2ccccc2c(C(=O)OCc2nnc(-c3cc(OC)c(OC)c(OC)c3)o2)c1CC
-0.9 | 4 | O=C(CC(NCc1cccnc1)C(=O)O)NN(c1ccccc1)c1ccccc1 (stereo not drawn)
-2.3 | 7 | COc1ccccc1C(=O)Nc1ccncc1
x | -17 | O=C(O)C(Cc1ccccc1)n1cnnn1 (stereo not drawn)
8.8 | x | CC(C)=CCC1=C(O)c2ccccc2C(=O)C1=O
4.9 | 12 | Cc1[nH]c2ccccc2c1SCCNC(=O)C(C)(C)C
-1.4 | 0 | CN(C)C(=O)/C=C/c1cn(-c2ccccc2)nc1-c1ccccc1
x | 12 | COc1cccc(NC(=O)c2ccnc(N3CCC(C(=O)NC4CCCC4)CC3)c2)c1
x | 15 | CS(=O)(=O)n1c(=O)oc2ccccc21
-2.5 | 7 | CCC(C)NC(=O)c1cc(S(=O)(=O)N2CCc3ccccc3C2)ccc1Cl (stereo not drawn)
x | -11 | CSc1nn(-c2ccccc2)cc1C(=O)N1CCOCC1
-1.4 | 11 | COc1ccc(C(=O)NC(N2CCCCC2c2cccnc2)(C(F)(F)F)C(F)(F)F)cc1 (stereo not drawn)
x | -4 | Cc1noc(C)c1CSc1ccccc1C(=O)NC(C)c1ccc2c(c1)OCCO2 (stereo not drawn)

# Continued:
MgrA DNA FP | S aureus helic | mol
1.1 | -17 | c1ccc(Cn2nnc3cnccc32)cc1
x | -9 | Cc1ccc(OCc2nc(SCC(=O)c3ccc(S(=O)(=O)N4CCCC4)cc3)n[nH]2)cc1
x | -19 | CC(=O)N1CCN(c2ccc(NC(=O)c3cc(Br)ccc3Cl)cc2)CC1
1.5 | 9 | CCC1(CC)C(=O)N(CC(=O)OC)C(=O)N(C)C1=S
1.1 | x | Cc1cc(S(=O)(=O)Nc2ccnn2C)c(Cl)cc1Cl
1.0 | 0 | CN(C(=O)Cc1noc2ccccc12)c1ccccc1
x | 0 | Cc1ccc(N(CC(=O)N2CCN(c3ccccc3)CC2)S(=O)(=O)c2c(C)n[nH]c2C)cc1
x | 5 | NC1=Nc2ccccc2CC1
0.0 | 5 | Nc1ccc(C(=O)N(CCO)CCO)cc1
x | 15 | NCCS(=O)(=O)c1ccc(C(F)(F)F)cn1
6.3 | -12 | O=C(Nc1cccc(I)c1)C(=O)c1c(O)[nH]c2ccccc12
x | -4 | NC(=O)SCc1nc2c3ccccc3ncn2n1
-1.6 | 0 | COc1ccc(CCN=C(N)Nc2nc(C)cc(C)n2)cc1OC
0.7 | 2 | CCn1c2ccccc2c2cc(/C=N/O)ccc21
x | 17 | CC(Sc1nnnn1C)C(=O)NC(C)c1ccc(Cl)cc1Cl (stereo not drawn)

# Complete entries, looked up by structure:
# Listed for `CC(Sc1nnnn1C)C(=O)NC(C)c1ccc(Cl)cc1Cl` (stereo not drawn) → MgrA DNA FP = x; S aureus helic = 17
# Listed for `Cc1cc(S(=O)(=O)Nc2ccnn2C)c(Cl)cc1Cl` → MgrA DNA FP = 1.1; S aureus helic = x

# Other structures follow.
MgrA DNA FP | S aureus helic | mol
-3.9 | 3 | CCOC(=O)C1CCN(Cc2cn[nH]c2-c2ccc(C)cc2)CC1
-0.9 | x | N#C/C(=C\c1ccc2c(c1)OCO2)c1nc2ccccc2[nH]1
x | 15 | Cc1ccc(NCC(=O)N2CC3(C)CC2CC(C)(C)C3)cc1F (stereo not drawn)
0.8 | 2 | COc1cc(C)c(S(N)(=O)=O)cc1C(C)C
-1.3 | -20 | Cc1[nH]c2ccccc2c1C=Nc1ccccc1Br
x | 22 | CCC(CO)NS(=O)(=O)c1cc(-c2nnc(OC)c3ccccc23)ccc1C (stereo not drawn)
x | -4 | CCc1ccccc1OCC(=O)OCC(=O)Nc1cc(C)on1
x | 2 | Cc1n[nH]c(=O)c2c(NC(=O)COC(=O)Cc3c(F)cccc3Cl)oc(C)c12
x | -5 | CC1Cc2ccccc2N1C(=O)CCS(=O)(=O)c1ccc2c(c1)n(C)c(=O)c(=O)n2C (stereo not drawn)
1.0 | 4 | COc1cc(OC)cc(C2C(C#N)=C(N)Nc3oc(C)nc32)c1 (stereo not drawn)

# These rows are one share of the data; the hit share may differ from the screen's.
